Assay outcomes as filed in PubChem.
Mtb growth: Confirmatory growth inhibition assay against Mycobacterium tuberculosis H37Rv, potency (AID 1949); most inactive calls were filed without a number and no value below 0 was filed; 1.6% of 100,000 active; one-dose inhibition, % at 10 µg/mL; IC50 in µg/mL for titrated hits;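 active means confirmed in a dose series; inconclusive means about 50% or more but not retested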;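 further: bacteria grown 7 days with compound before Alamar blue readout; 0% = untreated bacteria and 100% = reference antibiotic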
The depositor's hits bear a star; i = inactive; ? = inconclusive.

Structure,Mtb growth
Cc1cc(C)c(C)c(S(=O)(=O)NCc2ccc(C(=O)N3CCOCC3)cc2)c1C,i
O=C(Nc1nccs1)c1cn(-c2ccccc2)nc1-c1ccco1,i
CCOC(=O)C1=C(c2ccccc2)NC(=S)NC1c1ccsc1 (stereo not drawn),4.0%
COc1cc(-c2nnc3sc(-c4ccco4)nn23)cc(OC)c1OC,i
CCOc1ccc(C(=O)NC(=S)Nc2ccccc2C(=O)O)cc1Br,i
NC(=O)COc1ccc(C23CC4CC(CC(C4)C2)C3)cc1,19.7µg/mL*
Cc1ccc(NC(=O)CSc2nc(C)cc(=O)[nH]2)cc1,i
C=CCn1c(CNC(=O)c2ccccc2)nnc1SCC(=O)N1CCN(c2ccccc2)CC1,i
C=CCn1c(CNC(=O)c2cccs2)nnc1SCC(=O)c1ccc(Br)cc1,8.8%
Cc1ccc(C)c(S(=O)(=O)NCc2ccc(C(=O)Nc3ccc(Br)cc3F)cc2)c1,22.1%
Cc1ccc(NC(=O)c2cc(Cl)sc2Cl)cc1Cl,3.3%
CCc1nc(SCC(=O)Nc2ccc([N+](=O)[O-])cc2)n[nH]1,i
c1ccc(Cn2nnnc2-c2ccco2)cc1,2.4%
CN1CCN(c2cc(N3CCN(S(=O)(=O)Cc4ccccc4)CC3)ccc2[N+](=O)[O-])CC1,i
Cn1c(Sc2ccc([N+](=O)[O-])c(C(=O)O)c2)nnc1-c1ccccc1,i
CCOC(=O)c1cnc(Nc2nc(C)c3ccc(C)cc3n2)nc1C,1.4%
O=C(Nc1cccc(NC(=O)C23CC4CC(CC(C4)C2)C3)c1)c1ccccc1F,i
COc1ccc(NS(=O)(=O)c2cccs2)cc1Cl,i
CC(C)c1ccc(NC(=O)C(=O)NCc2ccncc2)cc1,2.5%
Fc1ccc(Nc2nc(Nc3ccc(F)cc3F)nc(N3CCOCC3)n2)cc1,i
Cc1ccc(C(=O)Nc2cc(Cl)c(O)c(Cl)c2C)cc1,2.8%
O=C1Nc2ccc(Cl)cc2C12SCCS2,i
COC(=O)c1cn(C(=O)c2ccccc2Cl)c2ccccc12,i
CC1(C)CC(NC(=O)CCCc2ccccc2)CC(C)(C)N1,i
COc1ccc(S(=O)(=O)n2ccnc2)c(C)c1C,i
COc1ccc(CCNCc2c(F)cccc2Cl)cc1OC,4.5%
CN(C)S(=O)(=O)N1CCN(c2cc(Cl)ccc2Cl)CC1,0.0%
Cc1ccc(C(=O)Nc2ccc(I)c(C)n2)c(C)c1,1.8%
COC(=O)c1c(NC(=O)c2ccc([N+](=O)[O-])cc2)sc2c1CCC2,i
CCOc1ccc(N(CC(=O)OC)S(=O)(=O)c2ccccc2)cc1,i

5 records picked at random from those above:
Structure,Mtb growth
Fc1ccc(Nc2nc(Nc3ccc(F)cc3F)nc(N3CCOCC3)n2)cc1,i
Cc1ccc(C(=O)Nc2ccc(I)c(C)n2)c(C)c1,1.8%
CC1(C)CC(NC(=O)CCCc2ccccc2)CC(C)(C)N1,i
COC(=O)c1cn(C(=O)c2ccccc2Cl)c2ccccc12,i
CCOc1ccc(N(CC(=O)OC)S(=O)(=O)c2ccccc2)cc1,i

Carrying on:
Structure,Mtb growth
CCOC(=O)c1c(NC(=S)Nc2ccsc2C(=O)OC)sc(C)c1-c1ccccc1,i
CN1CCN(C(=O)Cc2ccccc2)CC1,i
O=C(N1CCN(c2ccccc2F)CC1)C12CC3CC(CC(C3)C1)C2,10.6%
CCC(=O)NC(=S)Nc1ccc(NC(=O)c2ccc(OC)cc2)cc1,i
COc1ccc(N2CCN(C(=S)NCc3ccccc3)CC2)cc1,i
CC(=O)C1=C(c2ccccc2)NC(=O)NC1c1ccccc1OCC(=O)NCc1ccccc1 (stereo not drawn),i
COc1ccc(S(=O)(=O)N(CC(=O)Nc2ccccc2C(=O)NCC(C)C)c2ccc(C)cc2)cc1OC,i
CCc1ccc(N(CC(=O)Nc2ccc(OC)c(Cl)c2)S(=O)(=O)c2ccccc2)cc1,i
COc1cc(OC)cc(C(=O)N2CCN(Cc3ccc(OC)c(OC)c3)CC2)c1,i
Cc1ccc(OCC(=O)NC(=S)Nc2ccc(NC(=O)c3cccc(Cl)c3)cc2)c(C)c1,i
COC(=O)c1c(C)c(C)c(C(=O)OC)c(C)c1C,i
Cc1ccc(C(=O)Nc2nccs2)c(C)c1,i
CC1(C)CN=C(NCc2ccccc2Cl)S1,i
COc1cccc(C(=O)Nc2ccccc2C(=O)NCc2ccccc2)c1,2.1%
COC(=O)c1c(NC(=S)Nc2ccc3c(c2)OCCO3)sc2c1CCCCCC2,i
O=C(COc1ccccc1[N+](=O)[O-])Nc1ccc(CN2CCOCC2)cc1,i
COc1ccc(CNCc2ccc(OC)c3ccccc23)c(OC)c1,2.5%
CC(=O)c1ccc(OC(=O)COc2ccc(C)cc2Br)cc1,2.5%
O=C(Nc1ccc(C(F)(F)F)cc1)C1CCN(S(=O)(=O)c2cc(Cl)ccc2Cl)CC1,i
c1ccc(Oc2cccc(CN3CCC(N4CCN(c5ccccc5)CC4)CC3)c2)cc1,i
N#Cc1ccc(-c2ccccc2)nc1SCc1ccccc1C(F)(F)F,i
Cc1cccc(N2/C(=N/c3nc(C)cc(C)n3)NC(=O)CC2C(=O)O)c1 (stereo not drawn),i
O=C(Nc1ccccn1)c1ccc(NC(=O)C2COc3ccccc3O2)cc1 (stereo not drawn),i
O=S(=O)(Nc1ccc(-c2cn3ccsc3n2)cc1)c1ccc2cccc3c2c1CC3,3.1%
CCOC(=O)c1c(C)nc2ccccc2c1C(=O)O,i
O=C(Nc1ccc(F)cc1F)c1ccc(-c2ccc(Cl)cc2)o1,43.3%
O=C(O)C1CCCN1S(=O)(=O)c1ccc(Cl)cc1 (stereo not drawn),i
Clc1ccc(CNc2nc(N3CCOCC3)nc(N3CCOCC3)n2)cc1,i
O=C(Nc1ncc([N+](=O)[O-])s1)C1COc2ccccc2O1 (stereo not drawn),4.3%
CCCOc1ccc(NC(=O)CC2C(=O)N(c3ccccc3)C(=O)N2Cc2ccc(F)cc2)cc1 (stereo not drawn),i
O=S(=O)(c1ccc(Cl)cc1)N1CCN(C2Cc3ccccc3C2)CC1,i
CC(C)Oc1cccc(OCCn2cnc3ccccc32)c1,8.7%
Cc1cc(C)c(N2CCN(S(=O)(=O)c3ccc(Cl)cc3)CC2)c(C)c1,i
Cc1cc(C)cc(-c2nc(-c3ccncc3)no2)c1,i
COc1ccccc1N1CCN(CCCNC(=O)Nc2ccccc2)CC1,2.4%
Cc1cc(C)c(NC(=O)COc2ccccc2C)c(Cl)c1,i
COC(=O)C1=CN(Cc2cccs2)C=C(C(=O)OC)C1c1ccc(C(F)(F)F)cc1,3.1%
CC(=O)Nc1cc(C)c(I)cc1C,1.8%
O=C(NCCN1CCOCC1)c1cccc2ccccc12,i
CCOC(=O)c1ccc(NC(=O)NNC(=O)Cc2c(Cl)cccc2Cl)cc1,i
Cc1c(Cl)ccc(S(=O)(=O)NCc2ccco2)c1Cl,i
C=C(C)CN1CCN(c2ncnc3scc(-c4ccc(Cl)cc4)c23)CC1,i
Cc1oc2c(c1C(=O)Nc1ccc(I)cc1)CCCC2,i
CC1CCCCC1NC(=O)CSc1nc2ccccc2c(=O)[nH]1 (stereo not drawn),18.4µg/mL*
COc1cc(C=O)cc(Cl)c1OCc1cccc([N+](=O)[O-])c1,i
CCC(Oc1ccccc1)C(=O)NCc1ccccc1Cl (stereo not drawn),i
Cc1ccc(Cl)cc1N1CCN(S(=O)(=O)c2ccc(C)c([N+](=O)[O-])c2)CC1,0.6%
Cc1ccc(-c2csc(NC(=O)CSc3nnc(-c4ccco4)n3C)n2)cc1,i
COc1cc(C2C3=C(CC(C)(C)CC3=O)Nc3[nH]c(=O)[nH]c(=O)c32)ccc1OCc1ccccc1Cl (stereo not drawn),i
CCC1(C)Cc2ccccc2-c2c1c(=O)n(Cc1ccccc1)c1nnnn21 (stereo not drawn),i
COc1ccc(OC)c(NC(=O)C(=O)NC2CCCC2)c1,i
O=C(c1ccc(COc2ccc(Cl)cc2)cc1)N1CCCCC1,?
COc1c(C(=O)Nc2cccc(C(C)O)c2)ccc2ccccc12 (stereo not drawn),2.0%
COc1ccc(S(=O)(=O)Nc2ccc(NC(C)=O)cc2)cc1C,i
c1ccc(-c2nc(-c3ccc4c(c3)OCO4)cs2)cc1,?
Cc1ccc(C(=O)NC(=S)Nc2cccc(NC(=O)c3ccccc3Cl)c2)c(C)c1,20.9%
Cc1ccccc1OCCn1c(C(C)O)nc2ccccc21 (stereo not drawn),i
COc1cccc(N2C(=S)N(c3ccc(Br)cc3)C3CS(=O)(=O)CC32)c1 (stereo not drawn),i
O=C(Cc1ccc(Cl)cc1)Nc1ccc2oc(-c3ccncc3)nc2c1,i
COc1cc(NC(=S)N2CCCCC2C)c(OC)cc1Cl (stereo not drawn),i

The listing continues.
Structure,Mtb growth
CCn1c(SCC(=O)Nc2ccc([N+](=O)[O-])cc2)nnc1C(C)NC(=O)c1ccccc1Cl (stereo not drawn),i
COC(=O)C1=CN(c2ccc(Cl)cc2)C=C(C(=O)OC)C1c1ccccc1F,i
CCOC(=O)C1CCN(C(=O)CN(c2ccc(OC)cc2)S(=O)(=O)c2ccc(C)cc2)CC1,i
CCOc1ccc(Br)cc1CNc1ccc(C)cc1,i
COc1ccc(-c2cc(C(=O)Nc3sc(C)c(C)c3C(N)=O)c3ccccc3n2)cc1,i
Cc1ccc(-c2csc3ncn(Cc4ccccc4C)c(=O)c23)cc1C,20.1%
CCc1c(C)sc(NC(=S)NCc2cccs2)c1C(=O)OC,i
COc1ccc(NC(=O)C2CCN(C(=O)Cc3ccccc3)CC2)c(OC)c1,i
CCC(Oc1ccccc1)C(=O)NCc1cccc(CNC(=O)C(CC)Oc2ccccc2)c1 (stereo not drawn),i
COc1ccc(NC(=O)c2c(NC(=O)CNCc3ccco3)sc3c2CCC3)cc1,i
CCN(CC)CCOc1ccc(Br)cc1,1.9%
COc1ccc(C(=O)Nc2cccc(C)c2C)cc1Br,i
CCc1ccccc1N(CC(=O)Nc1cccc(OC)c1)S(C)(=O)=O,i
CCN(CC)C(=O)C(=O)Nc1ccc(C(C)C)cc1,i
C=CCc1ccc(OCc2ccc(C(=O)O)o2)c(OC)c1,i
Cc1oc(C(C)(C)C)cc1C(=O)Nc1ccc2ccccc2c1,i
COc1cc(C(=O)Oc2ccc(C)cc2C(C)=O)cc(OC)c1OC,i
CCN(C(=O)CN1C(=O)C2CCCCC2C1=O)c1nnc(-c2ccc(Cl)cc2)s1 (stereo not drawn),5.1%
Cc1noc(C)c1C(=O)N1CCc2ccccc2C1,i
CCC(C)N(C(C)CC)S(=O)(=O)c1ccc(Br)cc1 (stereo not drawn),i
CC(C)(C)c1nc(-c2cccc(Br)c2)no1,i
O=C(CCCN1C(=O)c2ccccc2C1=O)Nc1ccc(F)cc1F,i
CCOC(=O)C1CCCN(C(=O)C(C)Oc2ccc(Cl)cc2Cl)C1 (stereo not drawn),i
CNCCCOc1cccc2ccccc12,i
CC(=O)c1ccc(NC(=S)NNC(=O)CC#N)cc1,i
COc1ccc(C2C(C#N)=C(C)NC3=C2C(=O)CCC3)c(OC)c1 (stereo not drawn),i
O=C(O)c1ccc(C2Nc3ccc(F)cc3C3C=CCC32)cc1 (stereo not drawn),i
CCOC(=O)c1cnc2ccc(C(=O)OC)cc2c1NCc1ccccc1,i
Cc1nc(SCc2nc3ccccc3[nH]2)[nH]c(=O)c1C,2.3%
COc1ccc(Cc2nnc(SCC(=O)Nc3nc(C)cs3)o2)cc1,9.8%
O=C(Nc1ccc(I)cc1)C1CCN(C(=O)c2cccc(Cl)c2)CC1,i
O=c1nc(N2CCCCC2)nc(N2CCCCC2)[nH]1,i
CCOc1ccccc1NC(=O)COc1ccc(C=O)cc1OCC,1.8%
O=C(N1CCCCCC1)n1cnc(-c2ccccc2)c1-c1ccccc1,i
COC(=O)c1ccc(COC(=O)c2ccccn2)cc1,?
Cc1cc(C)cc(NC2=C(Cl)C(=O)N(Cc3ccccc3)C2=O)c1,2.4%
N#Cc1ccc(-c2ccc(OCC(=O)Nc3cccnc3)cc2)cc1,<0.1µg/mL*
Fc1ccc(NC(=S)N2CCc3ccccc3C2)c(F)c1,3.0%
Cc1cc(=O)oc2c(C(=O)c3ccccc3)c(OCc3ccc(Cl)cc3)ccc12,i
Cc1cc(C=O)c(C)n1-c1cccc(Cl)c1,1.3%
CCn1c(CNC(=O)c2ccccc2F)nnc1SCC(=O)Nc1cc(Cl)ccc1OC,i
C=CCN1C(=O)NC(=O)/C(=C/c2ccc(C)o2)C1=O,i
O=C(O)Cc1ccc(NC(=S)Nc2ccc([N+](=O)[O-])cc2)cc1,i
Cc1ccc(CSCC(=O)Nc2cccc(C)c2C)cc1,i
COCCNC(=O)C1CCN(S(=O)(=O)c2ccc(OC)cc2)CC1,i
Fc1ccccc1CSc1nnc2sc3ccccc3n12,i
CC(C)c1ccc(OCC(=O)Nc2ccc(N3CCN(C)CC3)cc2)cc1,5.5%
CCCCC(CC)CNC(=O)c1ccc(C)o1 (stereo not drawn),2.6%
Cc1ccc(S(=O)(=O)Nc2cccc([N+](=O)[O-])c2)cc1,i
O=C(CC12CC3CC(CC(C3)C1)C2)NNC(=O)Nc1ccc2c(c1)OCO2,i

An excerpt (hit frequency here may not be typical).
